# Source: PubChem
# MEX-5 binding: C. elegans MEX-5 TCR-2 RNA binding activity; Q9XUB2; MEX-5/FITC-TCR2 RNA binding, fluorescence polarization; hits give low values; activity score (negative = inhibition of binding), % at 10 µM; 0.38% of 300,000 active; AID 1832;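 active = inhibition past about -25% in most replicates, and total fluorescence under double the plate's negative control median, limit read from the data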;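 note: 0% = DMSO and -100% = 5 µM competing unlabeled TCR2 RNA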
# Fam108B counter: Fam108B inhibition, counter-screen for RBBP9 inhibitors; recombinant Fam108B, FP-Rh probe fluorescence polarization; inhibition, % at 9.51 µM; 0.33% of 300,000 active; AID 1947;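 active = inhibition above the screen mean inhibition plus 3 SD, computed separately per campaign, cut at about 18% in these data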;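 note: inhibitors lower polarization as less probe binds the enzyme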
# AHR activator: activators of human aryl hydrocarbon receptor; 2.5% of 320,000 active; activation, % at 5 µM; AHR-responsive luciferase reporter cells, luminescence; P35869; in the data active = activation above about 47%;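 note: 0% = vehicle wells and 100% = reference agonist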
# Target sequence (P35869 whole entry, looked up): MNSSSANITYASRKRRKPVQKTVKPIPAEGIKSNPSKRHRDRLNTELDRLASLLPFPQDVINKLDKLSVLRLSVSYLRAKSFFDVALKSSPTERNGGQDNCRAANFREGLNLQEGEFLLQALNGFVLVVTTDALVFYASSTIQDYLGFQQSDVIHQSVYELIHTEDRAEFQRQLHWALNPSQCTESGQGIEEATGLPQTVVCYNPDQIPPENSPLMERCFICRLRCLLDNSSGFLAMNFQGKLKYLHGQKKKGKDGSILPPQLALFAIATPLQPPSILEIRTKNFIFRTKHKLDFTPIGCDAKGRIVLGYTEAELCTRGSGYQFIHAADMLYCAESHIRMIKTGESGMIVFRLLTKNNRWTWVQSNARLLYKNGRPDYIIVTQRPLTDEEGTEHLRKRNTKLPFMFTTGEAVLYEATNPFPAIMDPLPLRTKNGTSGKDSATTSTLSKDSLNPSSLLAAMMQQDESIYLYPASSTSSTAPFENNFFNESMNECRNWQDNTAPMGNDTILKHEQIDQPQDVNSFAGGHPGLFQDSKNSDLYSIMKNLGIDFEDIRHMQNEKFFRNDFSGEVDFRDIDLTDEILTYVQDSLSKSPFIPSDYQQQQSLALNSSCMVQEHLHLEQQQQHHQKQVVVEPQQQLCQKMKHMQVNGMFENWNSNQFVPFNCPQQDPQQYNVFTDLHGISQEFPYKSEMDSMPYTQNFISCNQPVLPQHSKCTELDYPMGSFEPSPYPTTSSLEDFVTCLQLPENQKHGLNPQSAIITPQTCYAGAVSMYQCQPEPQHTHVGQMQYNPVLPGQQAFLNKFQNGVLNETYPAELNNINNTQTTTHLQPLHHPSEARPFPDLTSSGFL
# PAFAH1B2 inh: PAFAH1B2 (human) inhibition. inhibition, % at 3.39 µM. 1.2% of 340,000 active. AID 492953. recombinant PAFAH1B2, FP-rhodamine activity probe, fluorescence polarization. P68402;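 active = inhibition above the mean of all tested compounds plus 3 SD, cut at about 24% in these data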;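 note: 0% = enzyme with DMSO and 100% = wells lacking PAFAH1B2; many of its hits are not listed in these tables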
# pPAFAH FP inh: inhibitors of human plasma PAF acetylhydrolase (pPAFAH). Q13093. recombinant pPAFAH, FP-rhodamine probe fluorescence polarization. inhibition, % at 3.39 µM. 1.5% of 330,000 active;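 active = inhibition above the mean inhibition across the screen plus 3 SD, cut at about 25% in these data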;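 note: inhibitors block binding of the rhodamine activity-based probe so polarization drops; 0% = enzyme with DMSO and 100% = wells lacking pPAFAH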
# GLD-1 TGE inh: GLD-1-TGE RNA interaction inhibition (C. elegans); 0.44% of 320,000 active; inhibition, % at 5.96 µM; purified GLD-1 + fluorescein TGE RNA, fluorescence polarization;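 active = percent inhibition above a per-plate cutoff, the plate mean of test compounds plus 3 SD, cut at about 30% in these data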;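 note: 0% = DMSO wells with GLD-1 and probe and 100% = wells lacking GLD-1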
# * = called active by the depositor. Not all compounds are listed; rates above refer to the full screens.
SMILES,MEX-5 binding,Fam108B counter,AHR activator,PAFAH1B2 inh,pPAFAH FP inh,GLD-1 TGE inh
Cc1c(C(=O)Nc2ccc(Cl)cc2)c2ccccn2c1C(=O)c1ccccc1,-2.4,0,15,-3,6,-1
CC1=C(C(=O)Nc2cc(C)ccn2)C(c2ccc(C)cc2)C2=C(CCCC2=O)N1 (stereo unspecified),0.5,2,6,1,-1,2
COc1ccc(-c2nnc(SC)o2)c(OC)c1,-0.4,-1,8,6,2,3
C/C(CC(=O)NCC(C)C)=N\NC(=O)COc1cc(C)c(Br)cc1Br,1.5,-1,20,4,5,0
CCn1c(N)c(C(=O)Nc2ccccc2C(=O)OC)sc1=S,4.0,3,10,4,8,-4
CC1(C)CC(/C=C/c2ccccc2)=Nc2ccccc2N1,0.0,5,13,11,7,-3
Cc1cccc(C)c1NC(=O)Cn1nc(-c2ccccc2)nc1-c1ccccc1,1.2,-4,0,-3,1,5
O=C(CC1C(=O)NCCN1Cc1c(F)cccc1Cl)NCCC1=CCCCC1 (stereo unspecified),0.6,-1,3,-5,3,-5
O=C(O)CN1C(=O)SC(Nc2ccc(C(=O)O)cc2)C1=O (stereo unspecified),-4.8,-5,0,5,-3,-3
O=C(NC1CC1)c1ccc2c3c(cccc13)CC2,0.0,-8,4,3,4,8
CC(=O)NS(=O)(=O)c1cccnc1Nc1ccc(Cl)c(Cl)c1,-2.4,-10,-4,17,-3,-11
COc1ccc(S(=O)(=O)N(CCCN2CCOCC2)Cc2cccc(OC)c2OC)cc1,2.3,5,7,-1,-2,-2
COc1cc(C)c(NC(=S)Nc2cccc(Cl)c2)cc1OC,-0.5,0,2,4,5,3
CC(=O)CSc1nnc(C(F)(F)F)n1C,-1.8,-3,-3,3,0,6
O=C1C=C(NCc2ccccc2)CCC1,-0.3,5,-1,2,2,2
COc1ccccc1NC(=O)C(=O)N(c1cccnc1)C(C(=O)NC(C)(C)C)c1ccccc1 (stereo unspecified),1.6,0,0,12,0,4
CCN1CCCC1CNS(=O)(=O)c1ccc(Cl)c(C(F)(F)F)c1 (stereo unspecified),-0.2,1,1,0,-1,-5
CC(C)C(C)(C#N)NC(=O)CSc1nnc(C(F)(F)F)n1C (stereo unspecified),-1.6,-2,2,-1,2,6
O=C(O)CN1C(=O)SC(Nc2ccc(Cl)cc2)C1=O (stereo unspecified),-0.2,4,1,5,2,10
CC(C)N(C(=O)c1ccc2nc(-c3ccccc3)c(-c3ccccc3)nc2c1)C(C)C,1.0,2,13,0,2,3
CC1=C(C(=O)Nc2ccccn2)C(c2cccnc2)n2nnnc2N1 (stereo unspecified),-2.8,-3,1,8,-6,-1
Cc1no[n+]([O-])c1COc1ccc(/C=N/n2nnnc2N)cc1,-2.0,-4,-3,2,-1,-4
C/C(=N\NC(=O)c1ccc([N+](=O)[O-])cc1)c1c(O)cc(C)oc1=O,0.1,-3,2,1,6,-1
CN(Cc1ccco1)C(=O)Cn1nc(-c2ccc(Cl)cc2)ccc1=O,-1.6,2,5,0,4,-9
Cn1c(SCC(=O)NC2CC2)nnc1C(F)(F)F,1.2,1,0,5,3,0
COc1cccc(C2C(C(=O)Nc3cccnc3)=C(C)Nc3nnnn32)c1OC (stereo unspecified),-0.9,7,3,-1,4,-9

# Gathered by group, the entries above with nitrogen in an aromatic ring.
SMILES,MEX-5 binding,Fam108B counter,AHR activator,PAFAH1B2 inh,pPAFAH FP inh,GLD-1 TGE inh
Cc1c(C(=O)Nc2ccc(Cl)cc2)c2ccccn2c1C(=O)c1ccccc1,-2.4,0,15,-3,6,-1
CC1=C(C(=O)Nc2cc(C)ccn2)C(c2ccc(C)cc2)C2=C(CCCC2=O)N1 (stereo unspecified),0.5,2,6,1,-1,2
COc1ccc(-c2nnc(SC)o2)c(OC)c1,-0.4,-1,8,6,2,3
CCn1c(N)c(C(=O)Nc2ccccc2C(=O)OC)sc1=S,4.0,3,10,4,8,-4
Cc1cccc(C)c1NC(=O)Cn1nc(-c2ccccc2)nc1-c1ccccc1,1.2,-4,0,-3,1,5
CC(=O)NS(=O)(=O)c1cccnc1Nc1ccc(Cl)c(Cl)c1,-2.4,-10,-4,17,-3,-11
CC(=O)CSc1nnc(C(F)(F)F)n1C,-1.8,-3,-3,3,0,6
COc1ccccc1NC(=O)C(=O)N(c1cccnc1)C(C(=O)NC(C)(C)C)c1ccccc1 (stereo unspecified),1.6,0,0,12,0,4
CC(C)C(C)(C#N)NC(=O)CSc1nnc(C(F)(F)F)n1C (stereo unspecified),-1.6,-2,2,-1,2,6
CC(C)N(C(=O)c1ccc2nc(-c3ccccc3)c(-c3ccccc3)nc2c1)C(C)C,1.0,2,13,0,2,3
CC1=C(C(=O)Nc2ccccn2)C(c2cccnc2)n2nnnc2N1 (stereo unspecified),-2.8,-3,1,8,-6,-1
Cc1no[n+]([O-])c1COc1ccc(/C=N/n2nnnc2N)cc1,-2.0,-4,-3,2,-1,-4
CN(Cc1ccco1)C(=O)Cn1nc(-c2ccc(Cl)cc2)ccc1=O,-1.6,2,5,0,4,-9
Cn1c(SCC(=O)NC2CC2)nnc1C(F)(F)F,1.2,1,0,5,3,0
COc1cccc(C2C(C(=O)Nc3cccnc3)=C(C)Nc3nnnn32)c1OC (stereo unspecified),-0.9,7,3,-1,4,-9
